Bioassay records as filed in PubChem.
Vaccinia Venus – inhibitors of vaccinia virus (Venus reporter); 330,000 compounds, 0.46% hits; Potency, µM (titrated, usually from 36.5 µM), for the others: top-dose activity change, negative = inhibition, most hits filed as inhibitors; Vaccinia virus Venus reporter expression, fluorescence; AID 720580; active means well fitted inhibition curve with a large enough effect; inconclusive means small, poorly fitted or top-dose-only effect; inactive means no such curve, though single readings can be large or run the other way; tested in A549 cells; note: nearly all actives have a fitted effect of over 30% in size; inactives centre near -10
Vaccinia mCherry – inhibitors of vaccinia virus infection (mCherry reporter signal). Potency, µM (top dose mostly 36.5 µM), for the others: at the top dose activity change, negative = inhibition, usual class: inhibitors. Vaccinia virus mCherry reporter infection, fluorescence; about a quarter of the inactives have no number. 310,000 compounds, 0.63% hits; active = well fitted inhibition curve with a large enough effect; inconclusive = small, poorly fitted or top-dose-only effect; inactive = no such curve, though single readings can be large or run the other way; tested in A549 cells; note: nearly all actives have a fitted effect of over 35% in size; inactives centre near -10
* marks the source's active call; other numbers are inactive results; i = inactive; ? = inconclusive; · = not tested or not shown; & = joins results of further samples; [ ] = another dose, or the depositor's remark. % is set by controls: 0 for no effect and ±100 for the full control effect; potency is the fitted concentration of half-maximal effect. No enrichment for hits, and some 0.88% of all compounds hit somewhere here.

Structure	Vaccinia Venus	Vaccinia mCherry
N#CC(C#N)=C1c2cc(S(=O)(=O)NCCO)ccc2-c2ccc(S(=O)(=O)NCCO)cc21	-8%[7.34 µM]	i[7.34 µM]
NC(=O)C[n+]1cccc2ccccc21	0%	0%
CCOc1ccc(CC(=O)NC2CC(=O)N(c3cccc(F)c3)C2)cc1 (centres undefined)	-8%	-8%
COc1cc(OC)c(NC(=O)c2cnc(N3CCCC3)nc2C)cc1Cl	-5%	4%
CN(C(=S)NCCN1CCOCC1)C(c1ccccc1)c1ccccc1	-20%	i
COCCN(CCOC)C(=S)Nc1ccccc1	-17%	-12%
CC1(C)C(=O)OC(c2cccn2-c2ccc([N+](=O)[O-])cc2)C2(CCCCC2)C1=O (centres undefined)	-2%	i
COc1cccc(N2CCN(C(=O)c3cnn(-c4ccccc4Cl)c3C3CCN(C(=O)OC(C)(C)C)CC3)CC2)c1	-5%	-13%
Cc1cc(C(=O)OCC(=O)Nc2ccccc2)c(C)o1	-18%	-20%
COc1ccc(-c2cc(C(C)=O)c(C)n2CCC(=O)Nc2ccc(C(F)(F)F)cc2)cc1	-21%	-23%
CC(C)(C)n1ncc2c(=O)n(CC(=O)NCc3ccc(F)cc3)cnc21	?	i[1.46 µM]
CC(=Nc1ccc(C)cc1C)c1sc2ccccc2c1O	-29%	-9%
CC12C(=O)N(c3nccs3)C(=O)C1C1C=CC2C1 (centres undefined)	2%	-6%
C#CCN1CCc2onc(-c3ccc(Br)cc3)c2C1=O	-4%	-11%
CCCCN(CCCC)CCNC(=O)Cn1nc(C)n2c(cc3sccc32)c1=O	-5%	6%
CCCCC(CC)c1nnc(NC(=O)c2cccs2)s1 (centres undefined)	-8%	3%
CN(C)CCN(C(=O)c1cc(Cl)sc1Cl)c1nc2ccc(F)cc2s1	1%	-7%
CCOC(=O)c1cc(-c2ccccc2)n(CCC(=O)N2CCN(c3ccccn3)CC2)c1C	-21%	-23%
O=S(=O)(c1ccc(NC(=S)Nc2ccccc2)cc1)N1CCOCC1	-13%	-13%
CC(C)CN(C(=O)CN1CCN(S(=O)(=O)c2ccccc2)CC1)c1c(N)n(CC(C)C)c(=O)[nH]c1=O	-12%	i
Clc1ccc(C2Nc3cccc4cccc(c34)N2)c(Cl)c1	4%	?
CCOc1ccc(-n2ccnc(SCC(=O)NC3CCCC3)c2=O)cc1	-18%	-4%
CC(C)(Cc1cccc(CC(C)(C)C(=O)O)c1)C(=O)O	-10%	i
Cn1c(N)c(C(=O)COC(=O)c2cc(-c3ccco3)nc3ccccc23)c(=O)n(C)c1=O	-2%	-28%
Cc1ccc(CNC(=O)C2CCN(Cc3nc(-c4ccccc4C)oc3C)CC2)cc1	-7%	-21%
Cc1cccc2nc3ccccc3nc12	-4%	-25%
CCOC(=O)c1ccc(NC(=O)CCC(=O)OC)cc1	-12%	·
Cc1cc(NC(=O)/C=C/c2ccccc2)c(C(C)C)cc1O	-24%	-12%
CC1CCCCC1NC(=O)CCN1C(=O)C2C3C=CC(C3)C2C1=O (centres undefined)	-6%	i
O=C(CN1CCCN(Cc2ccc(F)cc2Cl)C1=O)NCc1ccccc1	-8%	-22%
CC(C)(C)OC(=O)NCCCCCNC(=O)c1[nH]cnc1C(=O)Nc1ccc(Cl)cc1	?	11µM*
CCc1nnc(NC(=O)c2ccc(S(C)(=O)=O)cc2)s1	-3%	-11%
Cc1[nH]n(C(N)=S)c(=O)c1N=Nc1cccc(C(F)(F)F)c1	-7%	3%
CC(C)(C)Cc1c(-c2ccco2)nc2ccc(Cl)cn12	0%	8%
CCOC(=O)c1ccc(N2CN(CCc3ccccc3)CNC2=S)cc1	-22%	-9%
O=C(COCc1cc(-c2ccc3c(c2)OCO3)on1)Nc1cccc(O)c1	-10%	-16%
O=C(c1ccc([N+](=O)[O-])s1)N1CCc2ccccc2C1	?	?
O=C(COc1ccccc1-c1ccccc1)N/N=C/c1ccc2ccccc2c1	?	-29%
O=C(OCCCOC(=O)c1ccc([N+](=O)[O-])o1)c1ccc([N+](=O)[O-])o1	-9%	-1%
Cc1cccc(N2CCC(N3CCN(C4CCCCC4)C(CCO)C3)CC2)c1C (centres undefined)	-10%	?
COc1ccc(/C=C2\SC(=S)N(CCCC(=O)N3CCN(C)CC3)C2=O)cc1	-27%	-19%
C=CCC[C@H](Cc1ccc(F)cc1)C(=O)OC[C@H](Cc1c[nH]c2ccccc12)NC(=O)[C@H](CC=C)CC(=O)N(CCO)Cc1ccccc1	22µM*	?
COc1ccc(NC(=O)CN(c2ccc([N+](=O)[O-])cc2)S(=O)(=O)c2ccccc2)cc1	?	?
CC(=O)Nc1cccc(OCCCNS(=O)(=O)c2ccc(C#N)cc2)c1	-6%	-17%
CCc1ccc(Oc2nc3c(C)cccn3c(=O)c2/C=C(\C#N)c2nc3ccccc3[nH]2)cc1	3%	-9%
CCOC(=O)c1c(C)[nH]c(C)c1S(=O)(=O)N1CCC(C(=O)NCc2ccc(N(C)C)cc2)CC1	-14%	-18%
Cc1coc2c(C)c3oc(=O)c(CC(=O)N4CCCCC4)c(C)c3cc12	-6%	-4%
COc1cccc(C2C(C(=O)OCc3ccccc3)=C(C)Nc3ncnn32)c1OC (centres undefined)	-2%	-8%
Cc1ccc(S(=O)(=O)N(CCC(=O)N2CCOCC2)c2ccccc2)cc1	-4%	-14%
CC(C)(C)n1cc(S(=O)(=O)c2ccccc2)[nH]c1=O	-11%	i
COc1cccc(CNC(=O)Cn2c(C)c3cnn(-c4ccccc4)c(=O)c3c2C)c1	-6%	-12%
CN(C(=O)c1cccc([N+](=O)[O-])c1)c1ccccc1C(=O)NCc1ccccc1	-11%	-1%
CC1CCCCN1C(=O)c1ccc(NC(=O)c2ccccc2Cl)cc1 (centres undefined)	-12%	i
CC1=C(C(=O)Nc2ccccc2C)C(c2ccc(C)o2)NC(=S)N1 (centres undefined)	-7%	i
N#CCCN1CCN(C2=NC(=O)/C(=C\c3cccs3)S2)CC1	-16%	-19%
CCN(CC)S(=O)(=O)c1ccc(NC(=O)COC(=O)c2cc(S(=O)(=O)Nc3ccc(OC)cc3)ccc2O)cc1	-2%	i

Further entries follow.
Structure	Vaccinia Venus	Vaccinia mCherry
CCOC(=O)C1(CCOc2ccccc2)CCN(Cc2ccc(COC)o2)CC1	-20%	-4%
CCOc1ccc(CCNC(=O)Cn2nc(CC)n3c(cc4sccc43)c2=O)cc1	-13%	-19%
O=C(Cc1ccc(Cl)cc1)NNC(=O)C(=O)NC1CCCCC1	18%	-12%
O=C(Nc1cccc(F)c1)Nc1ccnn1C1CCN(C(=O)c2cscn2)CC1	-9%	i
Cc1cccc(OCc2nc3ccccc3c(=O)n2N)c1	-9%	-14%
Cc1ccc(S(=O)(=O)Nc2ccsc2C#N)cc1	-23%	i
CSc1nsc(SCC(=O)N2CCN(c3ccccc3)CC2)n1	-21%	·
COc1ccccc1CNC(=O)c1oc2ccc3c(c2c1C)C(=O)CC(C)(C)O3	-22%	-22%

Random excerpt: four records from the list
Structure	Vaccinia Venus	Vaccinia mCherry
CCN(CC)S(=O)(=O)c1ccc(NC(=O)COC(=O)c2cc(S(=O)(=O)Nc3ccc(OC)cc3)ccc2O)cc1	-2%	i
CCOC(=O)c1c(C)[nH]c(C)c1S(=O)(=O)N1CCC(C(=O)NCc2ccc(N(C)C)cc2)CC1	-14%	-18%
O=C(OCCCOC(=O)c1ccc([N+](=O)[O-])o1)c1ccc([N+](=O)[O-])o1	-9%	-1%
CC(=Nc1ccc(C)cc1C)c1sc2ccccc2c1O	-29%	-9%

More structures follow.
Structure	Vaccinia Venus	Vaccinia mCherry
CCC(C)NC(=O)Cn1ncc2c(C)n(Cc3ccc(F)cc3)c(C)c2c1=O (centres undefined)	-10%	4%
Cc1ccc(CN2C(=O)CCC2C(=O)NCc2ccc3c(c2)OCO3)cc1 (centres undefined)	-15%	·
CCCn1nc(C(=O)NNC(=O)C2CSC3(C)CCC(=O)N23)c2ccccc2c1=O (centres undefined)	1%	-9%
C=CCNC(=S)N1CCC(C(N)=O)CC1	-10%	i
CC1CN(Cc2cc(=O)oc3cc(O)ccc23)CC(C)O1 (centres undefined)	4%	-3%
COc1ccc(CC(=O)Nc2ccc(-c3csc(C)n3)cc2)cc1	-11%	·
O=C(CCS(=O)(=O)c1ccccc1)Nc1ccc(N2CCOCC2)cc1	-13%	-6%
O=C(COC(=O)c1ccc(Br)o1)NCC1CCCCC1	3%	i
Cc1ccc(NC(=O)CSc2nc(=O)cc(N)n2-c2ccccc2)cc1	-14%&5%	-7%&1%
COCc1ccc(CN2CCC(n3nccc3NC(=O)C(OC)c3ccccc3)CC2)o1 (centres undefined)	-12%	-5%
CCNC(=O)C1(C)CCN(C(=O)c2ccc3snnc3c2)C1 (centres undefined)	-7%	18%
COc1ccc(-n2nc(C(=O)NCC(=O)NCCCN3CCCCCC3)c3ccccc3c2=O)cc1Cl	-14%	-7%
COc1ccc(NC(=O)CN(C)C(=O)c2ccc(S(=O)(=O)Nc3ccccc3F)cc2)cc1	-7%	-1%
Cc1ccc(C(=O)NC(=S)Nc2cccc(NC(=O)c3ccccc3)c2)cc1[N+](=O)[O-]	?	?
COc1cccc2c(=O)n(CC(=O)N3CCN(c4ccccc4)CC3)ccc12	-26%	-17%
CCOC(=O)C1=C(CC)Nc2ccccc2N=C1NC(=O)CCNC(C)=O	-10%	-3%
C=CCN1C(=O)C(CC(=O)NCC)SC1=Nc1ccc(S(N)(=O)=O)cc1 (centres undefined)	-10%	-18%
CC(C)NC(=O)Nc1ccc(Br)cc1Cl	-3%	i
O=c1c2sc3ccccc3c2n(Cc2ccccc2F)c(=O)n1CCc1ccccc1	-9%	-8%
COCCNc1ncnc2c1ncn2[C@H]1CN(Cc2ccc(-c3ccccc3)cc2)C[C@@H](CO)O1	-4%	10%
Cn1cnc(S(=O)(=O)Nc2ccc(C(F)(F)F)cc2)c1	?	·
O=C(NCCC1=CCCCC1)C1CCN(C(=O)N2CCOc3ccc(Cl)cc32)CC1	2%	1%
O=C(Nc1sc2c(c1C(=O)O)CCC2)c1ccccc1Cl	-14%	i
C[C@@H]1CN([C@@H](C)CO)C(=O)CCCn2nncc2CO[C@H]1CN(C)S(=O)(=O)c1ccccc1	-15%	-15%
CCNc1nc(Oc2ccccc2)nc(OC(C)C(=O)OCC)n1 (centres undefined)	-26%	·
O=c1nccc(Nc2ccccc2)[nH]1	0%	i
COC(=O)CCNC(=O)N1CCN(c2nnc(C)c3c(C)n(-c4ccc(Cl)cc4)nc23)CC1	2%	-8%
CC(C)c1ccc(NC(=O)CC2Oc3ccccc3NC2=O)cc1 (centres undefined)	-7%	-15%
Cc1c(C(=O)NCc2ccc(C#N)cc2)sc(=O)n1Cc1ccc(C(=O)N(C)C)cc1	-8%	4%
COc1ccc(-c2c(C#Cc3ccsc3)c3cc(Br)ccc3n2C)cc1	-9%	-5%
O=C(Cc1cccc(NC(=O)C2CCN(C(=O)C3CCC3)CC2)c1)Nc1cccc(C(=O)N2CCCCC2)c1	3%	-11%
COc1ccccc1NC(=O)c1sc2nc3c(cc2c1N)CN(Cc1ccccc1)CC3	-7%[7.34 µM]	-8%[7.34 µM]
CCN(CC)C(=O)C(=O)c1c(-c2ccccc2)[nH]c2ccccc12	-4%	-16%
O=C(Nc1cccc(Cl)c1Cl)c1ccc2c(c1)N(Cc1cccc(Cl)c1)C(=O)c1ccccc1S2(=O)=O	-1%	-17%
Cc1ccc(Cn2c(CN3CCC(C(=O)NCc4cccnc4)CC3)cc3ccccc32)cc1	-10%	-12%
O=C(Nc1cccc([N+](=O)[O-])c1)c1ccc(N2CCCC2=O)cc1	-17%	i
Cc1ccc(Nc2c(-c3ccco3)nc3nc(C)cc(C)n23)cc1	-14%&-11%	-21%&-2%
O=C(CCS(=O)(=O)c1ccc(F)cc1)N1CCN(c2ccccc2)CC1	-13%	-1%
CCN1CCc2c(sc(NC(=O)c3ccc(S(=O)(=O)N4CCOCC4)cc3)c2C(N)=O)C1	-2%	-32%
COc1ccc(OC)c(NC(=O)c2cccc(S(=O)(=O)N3CCN(C(C)=O)CC3)c2)c1	1%	-4%
CCOC1=C2[C@@H](CN(S(=O)(=O)c3ccc(C)cc3)[C@H]2c2ccccc2Cl)[C@H]2C(=O)NC(=O)[C@H]2C1	-11%	i
Cc1ccc2nc(NC(=O)CSc3nncc(=O)n3N)sc2c1	-14%	-11%
COC(=O)Nc1cc(C(F)(F)F)ccc1N1CCN(c2ccccc2)CC1	-9%	-21%
CCn1cc(C(=O)NCCC(C)C)c(=O)c2cc(S(=O)(=O)N(C)C3CCCCC3)ccc21	5%	-5%
CN(Cc1ccon1)C(=O)CC1C(=O)NCCN1CC(C)(C)C (centres undefined)	1%	-5%
O=C1CC(c2ccccc2)CC(O)=C1C=NCc1ccccc1 (centres undefined)	-12%	-28%
CC1CCC(NC(=O)CCC(=O)N2CC(C)Oc3ccccc32)CC1 (centres undefined)	-8%	-13%
On1c(-c2ccccc2Cl)nc2ccccc21	-3%	-14%
